# Compound activity as filed in PubChem BioAssay.
# EPAC2 antag: antagonists of human EPAC2. EPAC2 GEF exchange of Rap1B-BODIPY-GDP, fluorescence. 360,000 tested, 0.18% active. AID 720708. Q8WZA2. Potency, µM (titrated, usually from 114 µM), for the others: top-dose activity, negative = inhibition, hits mostly inhibitors; further: potency means the concentration at half of the fitted maximal effect; on the % scale 0 is the no-effect control and ±100 the full control effect; nearly all actives have a fitted effect of over 45% in size; many of its hits are not listed in these tables
# Mm-Cpn inhibitor: inhibitors of Methanococcus maripaludis chaperonin (MmCpn); purified Mm-Cpn ATPase, ADP Transcreener TR-FRET; Potency, µM (doses to about 76.9 µM), without a hit: top-dose activity, negative = inhibition, most hits filed as inhibitors; 330,000 tested, 0.031% active; AID 504842; further: potency means the concentration at half of the fitted maximal effect; on the % scale 0 is the no-effect control and ±100 the full control effect; nearly all actives have a fitted effect of over 80% in size
#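 Inhibition of chaperonin ATP hydrolysis is measured as reduced ADP production, detected by competitive TR-FRET in which signal falls with ADP. Final enzyme 25 nM and ATP 10 uM, reacted 30 min at 37°C.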
# CCT chaperon mod: cytosolic chaperonin activity modulation; purified chaperonin ATPase assay, HTRF ADP detection, 30 min; 360,000 tested, 0.3% active; activity change, % (concentration not given with the values), hits read low; AID 651819; in the data active means activity change below about -30%; further: on the % scale 0 is the no-effect control and ±100 the full control effect
#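 TRiC at 40 or 20 nM final (batch-dependent) in 30 mM Tris pH 7.4, 100 mM KCl, 5 mM MgCl2, 1 mM DTT, with compound at single 76 uM and 10 uM ATP, 30 min at 37 deg C. ADP detected by HTRF Transcreener, 665/615 ratio.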
# A549 tox: counter-screen for Nrf2 inhibitors: cytotoxicity in A549 cells | A549 ARE-Fluc cells, CellTiter-Fluor viability, 18-24 h | Potency, µM (titrated, usually from 46 µM), inactives show at the highest dose activity change, negative = cytotoxicity, hits mostly inhibitors | 390,000 tested, 0.16% active; further: potency means the concentration at half of the fitted maximal effect; on the % scale 0 is the no-effect control and ±100 the full control effect
#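 A549 ARE_Fluc cells in 5% FBS OPTI-MEM were exposed to compounds in concentration-response for 18-24 h at 37 deg C. Viability was read by CellTiter-Fluor fluorescence (Ex 405/Em 525) after 30 min, before the luciferase read.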
# EPAC2 ag: agonists of human EPAC2 (RAPGEF4); Q8WZA2; EPAC2 activation, biochemical qHTS; response scale: 100% = 6.5 mM cAMP response; Potency, µM (series often up to 154 µM), without a hit: at the top dose activation, most hits filed as activators; 360,000 tested, 0.079% active; further: potency means the concentration at half of the fitted maximal effect; nearly all actives have a fitted effect of over 50% in size
#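 Compounds were added across a concentration range to EPAC2 (100 nM), RAP1B-BODIPY-GDP (250 nM) and GDP (50 uM). After 5 min at room temperature, fluorescence was recorded at 5-min intervals for 30 min.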
# The depositor's hits bear a star; ? = inconclusive; . = no result given; & = joins results of further samples; [ ] = remark or other dose. Unless noted, the call rests on the fitted dose curve; in most records, active means well fitted curve in the direction sought with a large enough effect; inconclusive means small, poorly fitted or top-dose-only effect, or another doubt; inactive means no such curve, though single readings can be large; an effect the other way counts as inactive or inconclusive. This is a subset, so the mix of outcomes need not match the whole.
SMILES,EPAC2 antag,Mm-Cpn inhibitor,CCT chaperon mod,A549 tox,EPAC2 ag
O=C(O)C1OC(Oc2cc3oc(-c4ccccc4)cc(=O)c3c(O)c2O)C(O)C(O)C1O (configuration not stated),1%,?,0.1,-16%,-6%
Nc1nonc1-n1nnc(C(=O)N/N=C/c2ccncc2)c1-c1ccccc1,18%,-3%,0.3,1%,4%
CS(=O)(=O)c1ccc([C@@H](O)[C@@H](CF)NC(=O)C(Cl)Cl)cc1,10%,2%,-1.5,-10%,10%
CC(C)(C)NC(=O)[C@@H]1C[C@@H]2CCCC[C@@H]2CN1C[C@@H](O)[C@H](Cc1ccccc1)NC(=O)[C@H](CC(N)=O)NC(=O)c1ccc2ccccc2n1,?,-3%,-1.0&1.2,?,7%&14%
O=C1C[C@@H](c2ccc(O[C@@H]3O[C@H](CO)[C@@H](O)[C@H](O)[C@H]3O)cc2)Oc2cc(O)ccc21,9%,1%,0.5,-10%,0%
COc1cccc2c1C(=O)c1c(O)c3c(c(O)c1C2=O)C[C@](O)(C(C)=O)C[C@H]3O[C@@H]1C[C@@H](N)[C@@H](O)[C@@H](C)O1,53%[activator],-8%,2.0,?,0%
Cc1cc(NS(=O)(=O)c2ccc(N)cc2)no1,1%,2%[15.4 µM],-2.6,-8%,10%
COc1ccccc1C=CC(=O)C=Cc1ccccc1OC,-2%,.,-5.4,?,21%
CCCC(CCC)C(=O)O,-2%&14%,2%,-0.7&-2.5,-4%&-3%,-1%&1%
O=C(O)[C@@H](O)c1ccccc1,28%,-3%,-2.9,-2%,-2%
C#C[C@]1(O)CC[C@H]2[C@@H]3CCC4=CC(=O)CC[C@@H]4[C@H]3CC[C@@]21C,-6%,.,-1.7,1%,12%
NCCc1ccn[nH]1,5%,-1%,-1.4,0%,-3%
CNC(=O)c1cc(Oc2ccc(NC(=O)Nc3ccc(Cl)c(C(F)(F)F)c3)cc2)ccn1,4%,-3%,-2.5,?,11%
COc1c2occc2cc2ccc(=O)oc12,-16%,0%,0.2,-22%,4%
Oc1ccc(-c2nc(-c3ccc(F)cc3)c(-c3ccncc3)[nH]2)cc1,13%,1%,1.6,4%,5%
Cc1ccc(-c2nn(C(C)(C)C)c3ncnc(N)c23)cc1,7%,0%,-0.3,-11%,-9%
